VACV Venus inh = qHTS for Stage-Specific Inhibitors of Vaccinia Orthopoxvirus: Venus Reporter Primary qHTS | Vaccinia virus Venus reporter expression, fluorescence | Potency, µM (doses to about 36.5 µM), without a hit: at the highest dose activity change, negative = inhibition, most hits filed as inhibitors | actives 0.46% (n = 330,000); active means well fitted inhibition curve with a large enough effect; inconclusive means small, poorly fitted or top-dose-only effect; inactive means no such curve, though single readings can be large or run the other way; tested in A549 cells; note: nearly all actives have a fitted effect of over 30% in size; inactives centre near -10
VACV mCherry inh = qHTS for Stage-Specific Inhibitors of Vaccinia Orthopoxvirus: mCherry Reporter Primary qHTS; actives 0.63% (n = 310,000); AID 720579, 2013; Potency, µM (doses to about 36.5 µM), inactives show at the top dose activity change, negative = inhibition, hits mostly inhibitors; Vaccinia virus mCherry reporter infection, fluorescence; about a quarter of the inactives have no number; active = well fitted inhibition curve with a large enough effect; inconclusive = small, poorly fitted or top-dose-only effect; inactive = no such curve, though single readings can be large or run the other way; tested in A549 cells; note: nearly all actives have a fitted effect of over 35% in size; inactives centre near -10
* = called active by the depositor. % is set by controls: 0 for no effect and ±100 for the full control effect; potency is the fitted concentration of half-maximal effect. Random draw from the library; any-hit rate near 0.87%.

What do the screens show for `C#CCSc1nnc(-c2sc3ccccc3c2Cl)o1`?
VACV Venus inh: inconclusive; VACV mCherry inh: 11µM*

What do the screens show for `O=C(O)CNC(=S)N(Cc1ccccc1F)C1CCCCC1`?
VACV Venus inh: -11%; VACV mCherry inh: inactive

What do the screens show for `CN1CCN(c2ccc([N+](=O)[O-])cc2C(=O)N2CCOCC2)CC1`?
VACV Venus inh: -5%; VACV mCherry inh: -10%

How did Cc1noc(C(=O)NCc2ccccc2)c1Cl do in these assays?
VACV Venus inh: -25%; VACV mCherry inh: inactive

How did COC(=O)c1cc(NC(=O)C23CCC(C)(C(=O)O2)C3(C)C)cc(C(=O)OC)c1 (stereo not given) do in these assays?
VACV Venus inh: 0%; VACV mCherry inh: -10%

Results for Cc1cc(C(=O)Nc2cccc(-c3nc(CNC(=O)c4cc5ccccc5[nH]4)c(C)o3)c2)c(C)o1 ?
VACV Venus inh: -7%; VACV mCherry inh: -1%

Results for COCCCNC(=O)/C(C#N)=C/c1ccc(OCC(=O)O)c(OC)c1 ?
VACV Venus inh: -4%; VACV mCherry inh: inactive

What do the screens show for `Cc1cccn2c(=O)c(C=O)c(N3CCN(c4ccccc4)CC3)nc12`?
VACV Venus inh: -5%; VACV mCherry inh: -28%

What do the screens show for `COC(=O)c1c(-c2ccc(SC)cc2)sc2ccc(OC)cc12`?
VACV Venus inh: -23%; VACV mCherry inh: inactive

What do the screens show for `O=C(CCC(=O)N1CCOc2ccccc21)NCc1cccs1`?
VACV Venus inh: -11%; VACV mCherry inh: -10%

What do the screens show for `COc1cc(/C=N\NC(=O)c2ccc(Cn3cc(Br)c([N+](=O)[O-])n3)o2)cc(OC)c1O`?
VACV Venus inh: 2%; VACV mCherry inh: -12%

How did CCCn1c(C(C)Nc2nc(-c3ccc(C)cc3)cs2)nc2ccccc21 (stereo not given) do in these assays?
VACV Venus inh: -24%; VACV mCherry inh: -23%

What do the screens show for `O=C(N/N=C/c1ccc(N2CCOCC2)cc1)c1ccncc1`?
VACV Venus inh: -9%; VACV mCherry inh: -11%

How did COc1cccc(-n2c(=O)c3c(C)c(C)sc3n(CC(=O)Nc3ccccc3OC)c2=O)c1 do in these assays?
VACV Venus inh: -6%; VACV mCherry inh: 0%

How did CCN(C(=S)Nc1cccc2ccccc12)c1ccccc1 do in these assays?
VACV Venus inh: -16%; VACV mCherry inh: -21%

Results for O=C(CCSc1nc(-c2ccco2)cc(C(F)(F)F)n1)NCc1ccccn1 ?
VACV Venus inh: -8%; VACV mCherry inh: -2%

Results for COc1ccc(C(=O)N(Cc2ccc(N(C)C)cc2)Cc2ccco2)cc1Cl ?
VACV Venus inh: -7%; VACV mCherry inh: -14%

What do the screens show for `CCC(=O)Oc1ccc(NC(=O)c2ccc(S(=O)(=O)N3CCCC3)cc2)cc1`?
VACV Venus inh: -26%; VACV mCherry inh: -24%

What do the screens show for `CC(C)NC(=O)c1cc(-c2ccc3c(c2)OCO3)on1`?
VACV Venus inh: -7%; VACV mCherry inh: -18%

Results for O=C1[C@@H]2[C@@H]3C[C@@H]([C@H]4ON=C(c5ccc(OCc6ccccc6)cc5)[C@@H]34)[C@@H]2C(=O)N1c1ccc2c(c1)OCO2 ?
VACV Venus inh: -14%; VACV mCherry inh: inactive

What do the screens show for `CC(C)(C)S(=O)N1Cc2cn(Cc3ccccc3)c(=O)cc2[C@H]1CCO` (stereo not given in full)?
VACV Venus inh: -2%; VACV mCherry inh: inactive

What do the screens show for `COc1ccc(C2=CSC(/N=C/c3ccc(F)cc3)=NN2)cc1`?
VACV Venus inh: -14%; VACV mCherry inh: -7%

Results for COc1ccc(N2CCN(C3(c4ccccc4)C(=O)c4ccccc4C3=O)CC2)cc1 ?
VACV Venus inh: -14%; VACV mCherry inh: -15%

How did Cc1ccc(OCCCC(=O)N2CCN(S(=O)(=O)c3cccc(F)c3)CC2)cc1 do in these assays?
VACV Venus inh: -2%; VACV mCherry inh: -4%

What do the screens show for `O=C(OCC(=O)N(C1CCCCC1)C1CCCCC1)c1ccncc1`?
VACV Venus inh: -11%; VACV mCherry inh: inactive

Results for Cc1ccc(C(c2nnnn2Cc2ccccc2)N2CCN(Cc3ccccc3)CC2)cc1 (stereo not given) ?
VACV Venus inh: inconclusive; VACV mCherry inh: inconclusive

How did CCOc1ccc(-c2nc3c(C#N)c[nH]n3c2NC2CCCC2)cc1 do in these assays?
VACV Venus inh: inconclusive; VACV mCherry inh: inconclusive

What do the screens show for `CC(=O)Nc1ccc(NC(=O)c2cccc(-c3cc4ccccc4oc3=O)c2)cc1`?
VACV Venus inh: -1%; VACV mCherry inh: inactive

How did COc1ccc(OC)c(NC(=O)Nc2nnc(COCCO)s2)c1 do in these assays?
VACV Venus inh: 1%; VACV mCherry inh: 4%

What do the screens show for `COc1ccc(-c2nc(=N)sn2-c2ccccc2)cc1`?
VACV Venus inh: -27%; VACV mCherry inh: inconclusive

Looked up by structure from the entries so far, 6 records:
What do the screens show for `COc1cc(/C=N\NC(=O)c2ccc(Cn3cc(Br)c([N+](=O)[O-])n3)o2)cc(OC)c1O`?
VACV Venus inh: 2%; VACV mCherry inh: -12%

What do the screens show for `CC(C)NC(=O)c1cc(-c2ccc3c(c2)OCO3)on1`?
VACV Venus inh: -7%; VACV mCherry inh: -18%

How did CCN(C(=S)Nc1cccc2ccccc12)c1ccccc1 do in these assays?
VACV Venus inh: -16%; VACV mCherry inh: -21%

How did Cc1ccc(OCCCC(=O)N2CCN(S(=O)(=O)c3cccc(F)c3)CC2)cc1 do in these assays?
VACV Venus inh: -2%; VACV mCherry inh: -4%

What do the screens show for `C#CCSc1nnc(-c2sc3ccccc3c2Cl)o1`?
VACV Venus inh: inconclusive; VACV mCherry inh: 11µM*

What do the screens show for `COC(=O)c1c(-c2ccc(SC)cc2)sc2ccc(OC)cc12`?
VACV Venus inh: -23%; VACV mCherry inh: inactive

Nothing new here: entries from further up.
Results for COc1ccc(N2CCN(C3(c4ccccc4)C(=O)c4ccccc4C3=O)CC2)cc1 ?
VACV Venus inh: -14%; VACV mCherry inh: -15%

How did Cc1ccc(OCCCC(=O)N2CCN(S(=O)(=O)c3cccc(F)c3)CC2)cc1 do in these assays?
VACV Venus inh: -2%; VACV mCherry inh: -4%

What do the screens show for `O=C(OCC(=O)N(C1CCCCC1)C1CCCCC1)c1ccncc1`?
VACV Venus inh: -11%; VACV mCherry inh: inactive

Next part
Results for COc1ccc(-c2nc(CS(=O)CC(=O)NCc3ccccc3Cl)c(C)o2)cc1OC (stereo not given) ?
VACV Venus inh: -6%; VACV mCherry inh: -2%

Results for O=C(Nc1c(-c2ccccc2)nc2ccccn12)c1ccc(Br)cc1 ?
VACV Venus inh: -12%; VACV mCherry inh: -15%

Results for COc1cccc(OCc2cc(/C=N/NC(=O)c3nc(Cl)c(Cl)c(N)c3Cl)ccc2OC)c1 ?
VACV Venus inh: -27%

What do the screens show for `COc1cc(CNC(C)(C)CO)ccc1OCC(=O)NC(C)(C)C`?
VACV Venus inh: -11%; VACV mCherry inh: -13%

What do the screens show for `COc1ccc(-c2cc(C(F)(F)F)nc(NCc3ccc(F)cc3)n2)cc1`?
VACV Venus inh: 5%; VACV mCherry inh: -16%

What do the screens show for `NC(=O)CC(NC(=O)Cc1ccc(Br)cc1)c1ccc(N2CCN(c3ccc(F)cc3)CC2)c([N+](=O)[O-])c1` (stereo not given)?
VACV Venus inh: inconclusive; VACV mCherry inh: -23%

How did Cc1c(CN2CCCCC2)c(O)n(CCCO)c(=O)c1C#N do in these assays?
VACV Venus inh: -12%

How did O=C(NC(Cc1ccccc1)C(=O)O)/C(=C\c1ccco1)NC(=O)c1ccccc1Br (stereo not given) do in these assays?
VACV Venus inh: -5%; VACV mCherry inh: inactive

How did CC1(c2ccccc2)NC(=O)N(CC(=O)Nc2ccccc2N2CCCCC2)C1=O (stereo not given) do in these assays?
VACV Venus inh: -18%; VACV mCherry inh: -27%

How did COc1ccc(C(=O)NCCC(=O)NCc2cc(=O)n(C)c(=O)n2C)cc1 do in these assays?
VACV Venus inh: -10%; VACV mCherry inh: inactive

How did CCC(=O)NN1CCc2cc3ccc(C)cc3nc21 do in these assays?
VACV Venus inh: -11%; VACV mCherry inh: -3%

What do the screens show for `Cn1c(N)c(C(=O)COC(=O)c2ccc(C(F)(F)F)cc2)c(=O)n(C)c1=O`?
VACV Venus inh: -18%; VACV mCherry inh: -10%

How did CC(C)Cc1nnc(NC(=O)CC(=O)Nc2ccccc2C(=O)O)s1 do in these assays?
VACV Venus inh: -5%; VACV mCherry inh: -6%

What do the screens show for `Cc1ccc(Cn2c(Sc3ncccn3)nc3c2c(=O)[nH]c(=O)n3C)cc1`?
VACV Venus inh: -30%; VACV mCherry inh: -29%

What do the screens show for `O=C(/C=C/c1ccc([N+](=O)[O-])cc1)NCc1cccs1`?
VACV Venus inh: -28%; VACV mCherry inh: inactive

How did Cc1ccc(S(=O)(=O)Cn2nnnc2C(CC(C)C)N2CCN(C)CC2)cc1 (stereo not given) do in these assays?
VACV Venus inh: -4%; VACV mCherry inh: inactive

Results for CC(=O)NC(CC(=O)OC(C)C(=O)Nc1ccc(Cl)cn1)c1ccccc1 (stereo not given) ?
VACV Venus inh: -12%; VACV mCherry inh: inactive

What do the screens show for `O=C1c2ccccc2C(O)N1Cc1ccccc1Cl` (stereo not given)?
VACV Venus inh: -3%; VACV mCherry inh: -3%

How did COc1cccc(OC)c1Cn1nnc2c(=O)[nH]c(C3CCN(C(=O)c4ccccc4)CC3)nc21 do in these assays?
VACV Venus inh: -8%; VACV mCherry inh: -4%

How did CC1CC(NNC(=O)c2ccccc2)=Nc2ccccc2N1C (stereo not given) do in these assays?
VACV Venus inh: -8%; VACV mCherry inh: inactive

Results for CC(Oc1ccc(C(=O)NC2CCCCC2)cc1)C(=O)O (stereo not given) ?
VACV Venus inh: -1%

What do the screens show for `Cc1ccc(CN2CCN(CC(=O)NC(C)CCc3ccccc3)C2=O)cc1` (stereo not given)?
VACV Venus inh: -21%; VACV mCherry inh: inconclusive

What do the screens show for `Cc1ccc(S(=O)(=O)Nc2c(C)nc3nc[nH]n3c2=O)c(C)c1`?
VACV Venus inh: -13%; VACV mCherry inh: -2%

What do the screens show for `COC(=O)c1ccc(CSc2cc(C)c3cccc(C)c3n2)o1`?
VACV Venus inh: -7%; VACV mCherry inh: -1%

What do the screens show for `O=C(CSCc1n[nH]c(=O)[nH]1)NCCOc1cccc(Oc2ccccc2)c1`?
VACV Venus inh: -7%; VACV mCherry inh: -13%

What do the screens show for `COc1ccc(N2CCN(C(=O)[C@H](Cc3c[nH]c4ccccc34)NC(C)=O)CC2)cc1`?
VACV Venus inh: -3%; VACV mCherry inh: -22%

How did Cc1cc(-c2csc(N)n2)c(C)n1C do in these assays?
VACV Venus inh: -8%

What do the screens show for `Cc1cc2nc(-c3ccc(OCc4ccccc4F)cc3)cc(C(F)(F)F)n2n1`?
VACV Venus inh: -3%; VACV mCherry inh: -3%

What do the screens show for `CCCCc1c(-c2ccccc2OC)ncn1CCc1ccccc1Cl`?
VACV Venus inh: -25%; VACV mCherry inh: -7%

Results for CCCOc1ccc(NC(=O)CC2C(=O)N(c3ccc(Cl)cc3)C(=O)N2CCc2ccncc2)cc1 (stereo not given) ?
VACV Venus inh: -9%; VACV mCherry inh: -13%

Results for COc1ccc(CNC(=O)CCCC(=O)n2nc(C)c3ccccc32)cc1 ?
VACV Venus inh: -7%; VACV mCherry inh: -12%

How did Nc1nc(CN2CCN(c3ccccc3F)CC2)nc(N2CCCc3ccccc32)n1 do in these assays?
VACV Venus inh: -23%; VACV mCherry inh: -1%

What do the screens show for `CC(=O)Nc1ccc(S(=O)(=O)N2CCC(C(=O)NCCc3ccc(Cl)cc3)CC2)cc1`?
VACV Venus inh: -3%; VACV mCherry inh: 16%

How did Cc1cccc(N2C(=O)C(Oc3ccc(Cl)cc3Cl)C2C=O)c1C (stereo not given) do in these assays?
VACV Venus inh: -27%; VACV mCherry inh: -13%

How did COC(=O)c1ccc(-n2c(C)nc3ccccc3c2=O)cc1 do in these assays?
VACV Venus inh: -17%

Results for Cc1cc(C(=O)NC(C)Cc2ccccc2)cc(C)c1[N+](=O)[O-] (stereo not given) ?
VACV Venus inh: -11%; VACV mCherry inh: -23%

How did O=C(O)c1cccc(NC(=O)c2cc(S(=O)(=O)N3CCOCC3)cs2)c1 do in these assays?
VACV Venus inh: -10%; VACV mCherry inh: inactive

How did CC(C)(C)c1ccc(C(O)CCCN2CCC(C(O)(c3ccccc3)c3ccccc3)CC2)cc1 (stereo not given) do in these assays?
VACV Venus inh: 11µM*; VACV mCherry inh: 13µM*

Results for CCCCn1c(N)c(N(CCOC)C(=O)C2CC(=O)N(Cc3ccc(C)cc3)C2)c(=O)[nH]c1=O (stereo not given) ?
VACV Venus inh: -5%; VACV mCherry inh: 0%

Results for COc1cccc(NC(=S)N2c3ccccc3CC2C)c1 (stereo not given) ?
VACV Venus inh: -10%; VACV mCherry inh: inconclusive

Results for CCN(CC)c1ccc(/C=C(/C#N)C(=O)NC(C)C)o1 ?
VACV Venus inh: -9%; VACV mCherry inh: -11%

What do the screens show for `COc1ccc(C2CC(=O)N(Cc3cccc(C)c3)c3c2c(C)nn3-c2nc(C)cc(C)n2)c(OC)c1` (stereo not given)?
VACV Venus inh: -1%; VACV mCherry inh: -13%

Results for COc1cccc(-c2cc(C(=O)Nc3cc(Cl)ccc3O)on2)c1 ?
VACV Venus inh: -7%; VACV mCherry inh: -11%

Screens from PubChem BioAssay.
